High-throughput results: PubChem, several laboratories
CBX7 inh: CBX7 inhibition, primary AlphaScreen. O95931. AlphaScreen His6-CBX7 / biotin-H3K27me3 peptide binding; stronger effect = lower value. normalised signal (fraction of DMSO) (concentration not given with the values). hit rate 1.1% among 66,000; in the data active = normalised signal below about 0.5;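 also: 100 nL library stock added to about 20 µL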
Target sequence (O95931 whole entry, looked up): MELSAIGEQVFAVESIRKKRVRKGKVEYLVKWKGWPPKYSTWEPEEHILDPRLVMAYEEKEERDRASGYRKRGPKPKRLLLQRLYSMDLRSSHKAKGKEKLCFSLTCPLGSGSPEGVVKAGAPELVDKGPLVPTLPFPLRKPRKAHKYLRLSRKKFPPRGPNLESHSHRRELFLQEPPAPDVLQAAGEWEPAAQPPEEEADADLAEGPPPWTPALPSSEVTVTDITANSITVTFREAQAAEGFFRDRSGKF
CBX7 inh z-score: also measured in CBX7 inh; calls as there; z-score; measured here: z-score of CBX7 signal; some inactives read as strong as hits; reference of the scale not given here;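 same signal on another scale; lower means less binding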
Active calls of the source: *; & = joins results of further samples. An excerpt; the hit share may differ from the screen's.

Every second line gives: CBX7 inh z-score	CBX7 inh
> COc1ccc(C(O)c2nccn2Cc2ccccc2)cc1OC (configuration not stated)
→ -0.079&-0.11	1&0.92
> CC1CC(C)CN(c2nc(-c3ccccc3F)nc3ccccc23)C1 (configuration not stated)
→ 0.16	1
> COc1ccccc1NC(=O)c1cccc(S(=O)(=O)N2CCCCCC2)c1
→ 0.068	1.1
> O=C(NCCC1=CCCCC1)c1cc2c(s1)CS(=O)(=O)C2
→ -0.33	0.99
> CC1CN(c2nc(-c3ccc(Cl)cc3Cl)nc3ccccc23)CC(C)O1 (configuration not stated)
→ -0.1	0.91
> COc1ccc(CNCc2ccc3c(c2)OCO3)cc1
→ -1.1	0.96
> Cc1onc(-c2c(Cl)cccc2Cl)c1C(=O)NCCc1ccc(F)cc1
→ 0.15	1.1
> COc1ccccc1-c1c(C)nn2c(N3CCN(C)CC3)cc(C)nc12
→ 0.72	1.1
> Cc1nc2ccccc2n1CCOc1ccc(Br)cc1
→ -0.6	0.98
> CCOc1cccc(N2C(=O)CC(N3CCN(Cc4ccccc4)CC3)C2=O)c1 (configuration not stated)
→ 0.58	1

Compound profiles, from the list above. Screens in order: CBX7 inh z-score	CBX7 inh
CC1CC(C)CN(c2nc(-c3ccccc3F)nc3ccccc23)C1 (configuration not stated) reads 0.16	1
CCOc1cccc(N2C(=O)CC(N3CCN(Cc4ccccc4)CC3)C2=O)c1 (configuration not stated) reads 0.58	1
COc1ccc(C(O)c2nccn2Cc2ccccc2)cc1OC (configuration not stated) reads -0.079&-0.11	1&0.92
COc1ccc(CNCc2ccc3c(c2)OCO3)cc1 reads -1.1	0.96
COc1ccccc1NC(=O)c1cccc(S(=O)(=O)N2CCCCCC2)c1 reads 0.068	1.1

The list goes on.
Every second line gives: CBX7 inh z-score	CBX7 inh
> CCCOc1ccc(-c2nc(Nc3ccc(Cl)cc3)c3ccccc3n2)cc1
→ 1	1.2
> Clc1ccc(-c2nnc(SCc3nc(-c4ccccc4)no3)o2)cc1
→ 1.2	1.1
> NC(=O)c1oc2ccccc2c1NC(=O)c1cccc(Br)c1
→ 0.12	1
> COc1ccc(-c2cc3nc(C)c(CCC(=O)NC(C)CCc4ccccc4)c(C)n3n2)c(OC)c1 (configuration not stated)
→ 0.8	1.1
> COc1ccc(N2C(=O)c3ccc(Oc4cccc(NC(=O)C(C)(C)C)c4)cc3C2=O)cc1
→ -3.7	0.9
> Cc1ccc(CCNC(=O)c2ccc3c(c2)N(Cc2ccccc2)C(=O)c2ccccc2S3=O)cc1 (configuration not stated)
→ 0.84	1
> CN(C)CCCn1c(=N)n(CC(O)C(C)(C)C)c2ccccc21 (configuration not stated)
→ 0.13	1
> Cc1ccc(C(=O)N(c2ccc(C)cc2)c2nc(C(F)(F)F)c(-c3ccc(Cl)cc3)s2)cc1
→ 0.16	1
> COc1ccc(Nc2nc(-c3ccc(C)cc3)nc3ccccc23)cc1OC
→ 8.1	1.2
> Clc1cccc(Nc2nc(-c3ccncc3)nc3ccccc23)c1
→ 0.25	1
> COc1cccc(C(=O)Nc2nc3ccccc3s2)c1
→ 1.8	1.1
> COc1ccc(N2CCN(C(=O)CC(C)(C)CC3=NS(=O)(=O)c4ccccc4N3)CC2)cc1
→ -3.2	0.92
> COc1ccccc1Nc1ncc(F)c(Nc2ccccc2OC)n1
→ 0.96	1.1
> COc1ccc(-c2nn(C)c3sc(C(=O)Nc4cnc5ccccc5c4)cc23)cc1OC
→ 1.7	1.1
> COc1ccc(C(=O)Nc2ccc3c(c2)nc2n3CCN(Cc3ccccc3)C2)cc1
→ -0.095	0.95
> Cc1ccc(-c2ccc(=O)n(CC(=O)NC3CC3)n2)cc1
→ 0.74	1
> Cc1ccc(CNC(=O)C(C)C2Sc3ccccc3N(Cc3ccccc3F)C2=O)cc1 (configuration not stated)
→ 0.53	1
> Cc1cc(C)cc(NC(=O)C2CCN(c3nn4c(=O)cc(C)nc4s3)CC2)c1
→ 1.7	1.2
> COc1ccccc1CN1C(=O)CCC1(C)C(=O)NC1CCCCCC1 (configuration not stated)
→ 3.6	1.3
> Cc1ccc2oc(-c3cccc(NC(=O)c4ccc(Cl)cc4)c3)nc2c1
→ 2.1	1.3

Quoted from the results shown (five entries):
Every second line gives: CBX7 inh z-score	CBX7 inh
> Cc1ccc(-c2ccc(=O)n(CC(=O)NC3CC3)n2)cc1
→ 0.74	1
> Cc1ccc(CNC(=O)C(C)C2Sc3ccccc3N(Cc3ccccc3F)C2=O)cc1 (configuration not stated)
→ 0.53	1
> Cc1cc(C)cc(NC(=O)C2CCN(c3nn4c(=O)cc(C)nc4s3)CC2)c1
→ 1.7	1.2
> COc1ccccc1CN1C(=O)CCC1(C)C(=O)NC1CCCCCC1 (configuration not stated)
→ 3.6	1.3
> Cc1ccc2oc(-c3cccc(NC(=O)c4ccc(Cl)cc4)c3)nc2c1
→ 2.1	1.3

The results go on:
Every second line gives: CBX7 inh z-score	CBX7 inh
> O=C(O)c1cccc(-n2c(/C=C/c3ccc(OC(F)F)cc3)nc3cc(Cl)ccc3c2=O)c1
→ 0.048	1
> COCCNC(=O)c1cc(-c2ccccn2)nc2ccc(S(=O)(=O)N3CCC(C)CC3)cc12
→ -0.15	1
> COC(=O)c1c(NC(=O)c2ccc(Cl)cc2)sc2c1CCC2
→ -0.11	0.97
> CC1C2c3ccccc3C(c3ccccc32)C1C(=O)Nc1cccc(Cl)c1 (configuration not stated)
→ 1.1	1
> COc1ccc(CCN2C(=O)CCC2(C)C(=O)NC2CCCCCCC2)cc1OC (configuration not stated)
→ 0.77	1.1
> O=C(CN1C(=O)COc2ccc(Cl)cc21)NCc1ccccc1
→ 0.96	1.1
> COc1ccc(-n2nnc3c(=O)n(CC(=O)Nc4ccc(F)cc4F)cnc32)cc1
→ -0.13	0.99
> O=C(CSc1nnc(CNC(=O)c2cccs2)o1)Nc1nc2ccccc2s1
→ 1.8	1.1
> CCC1Oc2ccccc2N(CC(=O)N2CC(C)CC(C)C2)C1=O (configuration not stated)
→ -0.56	0.95
> Cc1ccc(-c2nnc(Nc3ccc(Cl)cc3)c3ccccc23)cc1S(=O)(=O)NCC1CCCO1 (configuration not stated)
→ -2.3	0.79
> Cc1sc(NC(=O)c2ccc(F)cc2)nc1-c1ccc(Cl)cc1
→ -2	0.87
> CCCCNC(=O)c1cc2n(n1)C(C(F)(F)F)CC(c1ccc(Cl)c(Cl)c1)N2 (configuration not stated)
→ -1	0.94
> CC(C)c1ccc(NCCNC2CCCCCC2)cc1
→ -1.3	0.97
> COc1ccccc1-c1cc2nc(C)c(CCC(=O)Nc3cc(Cl)ccc3C)c(C)n2n1
→ -0.11	1
> CCc1nnc(NC(=O)c2cc(Br)ccc2Cl)s1
→ 0.92	1.1
> Cc1ccc(-c2nc(CS(=O)(=O)CC(=O)NC(C)CCc3ccccc3)c(C)o2)cc1 (configuration not stated)
→ -0.15	0.93
> COC(=O)c1cn(C)c2ccc(S(=O)(=O)N3CCCCCC3)cc2c1=O
→ 1.4	1.1
> CCn1c(=O)cc(OCC(=O)Nc2cc(OC)ccc2OC)c2ccccc21
→ -0.35	0.98
> CC(NS(C)(=O)=O)C(c1cccs1)N1CCN(c2ccccc2)CC1 (configuration not stated)
→ 5.4	1.2
> CCCc1ccc(OCc2nc(-c3ccc(NC(=O)c4ccncc4)cc3)no2)cc1
→ -0.19	0.99
> CCOC(=O)c1cnc2c(C)cc(C)cc2c1Nc1cccc(C(F)(F)F)c1
→ 0.84	1.1
> CC1CCCCN1c1nc(-c2ccccc2O)nc2ccccc12 (configuration not stated)
→ 0.0066	1
> COc1cc(OC)c(Nc2nc(C)nc3sc4c(c23)CCCC4)cc1Cl
→ 0.041	1
> CCc1ccc(NC(=O)CCc2nc(-c3ccccc3F)no2)cc1
→ 0.3	1
> COc1cccc(CNC(=O)CCc2cn(Cc3ccc(C)cc3)c3ccccc23)c1
→ -0.12	0.88
> CCn1cc(C(=O)N2CC(C)CC(C)C2)c2cc(OC)c(OC)cc2c1=O (configuration not stated)
→ 2.2	1.3
> CCCCNC(=O)c1cc(Sc2cccc(Cl)c2)nc2ccccc12
→ -0.48	0.88
> CCN(CC)S(=O)(=O)c1ccc2c(c1)N(CC(=O)NCCCN1CCOCC1)C(=O)CS2
→ 1.4	1
> NC(=O)c1nn(-c2ccccc2)nc1NC(=O)COc1ccc(F)cc1Cl
→ 4.2	1.4
> Cc1cc(C)cc(NC(=O)C2CCN(S(=O)(=O)c3cccc4cccnc34)CC2)c1
→ -1.1	0.92
> c1ccc(CCNc2ccc3nnc(-c4ccccc4)n3n2)cc1
→ -1.9	0.91
> CCOc1ccc2nc(NC(=O)Cn3ncc4c3-c3cc(C)ccc3OC4)sc2c1
→ -1.1	0.94
> FC(F)(F)c1nnc2ccc(NCc3ccccc3)nn12
→ -1.7&0.43	0.96&1
> COc1cc2c(C(=O)Nc3ccc(C)c(F)c3)cn(CC(C)C)c(=O)c2cc1OC
→ -3.8	0.85
> O=C(C1CCC1)N1CCc2cc(S(=O)(=O)NC3CCCCCC3)ccc21
→ -1.5	0.96
> Cc1ccc2cc(CCNC(=O)CC(C)C)c(=O)[nH]c2c1C
→ 1.8	1.1
> CCOC(=O)c1ccccc1NC(=O)C(Cc1ccccc1)N1C(=O)c2ccccc2C1=O (configuration not stated)
→ -0.55	0.99
> Cc1ccc(N(C(=O)c2ccccn2)C2(C(=O)NC3CCCCC3)CCCCC2)cc1
→ -0.5	0.95
> COc1ccc(CCN2C(=O)N(c3ccccc3)C(=O)C2CC(=O)Nc2ccccc2)cc1 (configuration not stated)
→ -0.74	0.83
> COCCNC(=O)c1ccc2c(c1)ncn2C1CCCC1
→ -2.5	0.78
> COc1ccc(CNc2oc(COc3ccccc3Cl)nc2C#N)cc1
→ -7.5	0.83
> CCN(CCNC(=O)c1ccc2c(c1)N(CC)C(=O)c1ccccc1S2)c1ccccc1
→ -6.5	0.64
> Cc1cc(=O)oc2c(CN3CCC(C)CC3)c(O)c(Cl)cc12
→ -0.49	0.98
> CCOC(=O)c1ccc(NC(=O)CC2C(=O)N(c3ccccc3)C(=O)N2Cc2ccc(F)cc2)cc1 (configuration not stated)
→ -0.49	0.99
> CCc1ccc(NS(=O)(=O)c2ccc3[nH]cc(C(=O)NCc4ccccn4)c(=O)c3c2)cc1
→ 0.12	1
> COc1ccc(-n2ccnc2SCC(=O)Nc2ccc(C)cc2)cc1
→ -0.5	0.62
> Oc1ccc(Nc2nc3nonc3nc2Nc2ccc(O)cc2)cc1
→ -8.4	0.84
> O=C(NCc1cccc(Cl)c1)c1ccc2nc(N3CCOCC3)sc2c1
→ 0.6	1.1
> CCOc1ccccc1CN1C(=O)CCC1(C)C(=O)NC1CCCC1 (configuration not stated)
→ 0.77	1
> O=C(C1CCC(Cn2c(=O)[nH]c3ccccc3c2=O)CC1)N1CC=C(c2ccccc2)CC1 (configuration not stated)
→ -7.7	0.61

More structures follow.
Every second line gives: CBX7 inh z-score	CBX7 inh
> CCOc1ccccc1NC(=O)c1cc2c(s1)-c1ccccc1OC2
→ 48	2
> Fc1cccc(-c2nc3cc(F)c(Cl)cc3nc2-c2cccc(F)c2)c1
→ 1.8	1.3
> O=C(NC1CCCCCC1)c1cccc2c1C(=O)N(Cc1cccnc1)C2
→ -3.6	0.57
> CC(=O)Nc1ccc(S(=O)(=O)NCCc2nc(-c3ccccc3)cs2)cc1
→ -0.16	0.95
> O=C(c1ccc2c(=O)n(CCc3ccccc3)c(=O)[nH]c2c1)N1CCN(c2cccc(Cl)c2)CC1
→ -2.1	0.93
> COc1cc(-c2nc3cnccn3c2Nc2ccc(OC)c(OC)c2)ccc1O
→ 0.36	1
> O=C(CSc1nnc(C2COc3ccccc3O2)o1)N1CCCC1 (configuration not stated)
→ 2.4	1.1
> Cc1c(C(=O)c2ccccc2)c2cc(O)ccc2n1-c1cccc(Br)c1
→ -3	0.9
> CC(C)c1ccc(Nc2c(-c3ccc(Cl)cc3)nc3cnccn23)cc1
→ 0.17	1
> COc1ccc(CCNC(=O)C2NC(=O)CC2c2ccccc2)cc1OC (configuration not stated)
→ 1.6	1.1
> C=CCn1c(CCCNC(=O)c2ccccc2)nc2ccccc21
→ -0.048	1
> CCCCCNc1nc(CC)c2c(c1C#N)CC(C)(C)OC2
→ 2.6	1.1
> CCOc1ccc(CCNC(=O)CCN2N=C(c3ccc(CC)cc3)CCC2=O)cc1OCC
→ -3.8	0.79
> COc1ccc(-c2nc(CN3CCC(C(=O)NCCc4ccc(Cl)cc4)CC3)c(C)o2)cc1OC
→ 2.5	1.2
> CC(NC(=O)CC1Oc2ccc(Cl)cc2NC1=O)c1ccccc1 (configuration not stated)
→ -0.3	0.99
> Cc1nc2c(C(=O)NC3CCCCC3)cnn2c(C)c1Cc1ccc(F)cc1Cl
→ 1.4	1.1
> CCN1CCN(C(=O)c2cc3c(-c4cccc(OC)c4)nn(C)c3s2)CC1
→ -0.53	0.99
> CCOc1ccc2c(c1)c(=O)c(S(=O)(=O)c1ccccc1)cn2CC(=O)Nc1cc(C)ccc1C
→ -2.7	0.84
> Cc1ccc2cc(CCNC(=O)c3ccc(S(=O)(=O)N4CCOCC4)cc3)c(=O)[nH]c2c1C
→ 2.1	1.1
> O=c1c2ccccc2nc(/C=C/c2ccc3c(c2)OCO3)n1-c1cccc2ccccc12
→ -0.44	0.99
> CC1CCCCN1c1nnc(NC(=O)Nc2ccc(F)cc2)s1 (configuration not stated)
→ -0.84	0.79
> CCn1c(C(=O)Nc2ccc(Cc3ccncc3)cc2)cc2sc(Cl)cc21
→ -0.94	0.94
> COc1ccc(C(=O)Nc2cccc(-c3cn4cccc(C)c4n3)c2)cc1
→ 0.22	1
> O=c1[nH]c(NCCCO)nc2c1C1(CCCC1)Cc1ccccc1-2
→ 0.27	1
> Cc1ccc(C)c(NC(=O)CC2Oc3ccc(C)cc3NC2=O)c1 (configuration not stated)
→ 1	1
> Oc1ccccc1-c1cc(C(F)(F)F)on1
→ -0.65	0.95
> CC(=O)NCCNC(=O)CCn1c(=O)[nH]c2ccccc2c1=O
→ 0.38	1.1
> COc1ccc(C)cc1NC(=O)C(=O)NCc1ccncc1
→ -1.3	0.91
> CC(C)CCNC(=O)Cn1c(SCc2ccccc2F)nc2ccncc21
→ -0.23	1
> Cc1ccc(Nc2c(-c3ccccc3)nc3cnccn23)cc1
→ 0.3	1
